# TRPML1 blocker: human mucolipin-1 channel inhibition; Q9GZU1; TRPML1-inducible cells, Ca2+ dye fluorescence, FDSS; stronger effect = lower value; inhibition of EC80 agonist-evoked calcium signal; activity change, negative = inhibition, % (concentration not given with the values); hit rate 0.02% among 390,000; AID 624415; in the data active means activity change below about -50%; inconclusive means about -30% to -50%; inactive means above about -30%;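 also: stimulus is agonist 54-4 at its EC80 concentration; % is scaled to controls: 0 for no effect and ±100 for the full control effect; compound concentration not given in the record; the text of the record puts the active cut at -80%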
# Target sequence (Q9GZU1 whole entry, looked up): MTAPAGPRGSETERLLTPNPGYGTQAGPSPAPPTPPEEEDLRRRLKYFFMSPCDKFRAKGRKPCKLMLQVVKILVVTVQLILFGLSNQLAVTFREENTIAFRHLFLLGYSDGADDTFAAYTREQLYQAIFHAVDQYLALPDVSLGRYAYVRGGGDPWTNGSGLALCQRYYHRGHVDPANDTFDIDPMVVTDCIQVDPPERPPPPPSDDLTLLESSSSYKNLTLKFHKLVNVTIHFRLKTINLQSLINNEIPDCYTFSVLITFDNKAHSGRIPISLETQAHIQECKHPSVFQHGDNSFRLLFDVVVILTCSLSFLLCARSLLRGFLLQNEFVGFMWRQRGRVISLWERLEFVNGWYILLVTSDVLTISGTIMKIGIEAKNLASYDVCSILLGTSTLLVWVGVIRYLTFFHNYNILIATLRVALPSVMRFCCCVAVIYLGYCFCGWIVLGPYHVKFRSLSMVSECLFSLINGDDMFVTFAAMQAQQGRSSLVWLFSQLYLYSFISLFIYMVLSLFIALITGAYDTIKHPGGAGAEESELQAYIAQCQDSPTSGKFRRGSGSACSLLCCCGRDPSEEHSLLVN
#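 TRPML1-DL cells, Tet-induced overnight (~16 h, 37 °C) at 1,500 cells/well, were loaded with Ca8 no-wash dye plus quencher for 45-90 min at room temperature. Compounds were pinned during FDSS kinetic reading; agonist 54-4 at EC80 (4 uM final) then added.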
# TRPV1 potentiator: enhances activation of the human vanilloid receptor TRPV1; TRPV1-expressing cells, Fluo-8 calcium influx, capsaicin EC20 potentiation; host cell line not named in the record; control for the full effect not named in the record; potentiation, % at 8.33 µM; hit rate 0.02% among 320,000; AID 540277; active means potentiation above 80%; inconclusive means 30% to 80%; inactive means below 30%; also: 0% is about no effect
#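 Fluo-8 calcium influx in TRPV1-expressing cells, kinetic read (ex 480/em 520 nm). Compound added and read 3 min for agonist activity, followed by capsaicin at EC20 final and 2 min further read for enhancement.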
# ClpP mod: qHTS Assay for Activators of ClpP | ATP-dependent Clp protease proteolytic subunit (Bacillus subtilis (strain 168)), P80244 | purified B. subtilis ClpP, FRET peptide cleavage, 20 min | Potency, µM (series often up to 57.5 µM), inactives show at the highest dose activity change, negative = active | hit rate 1.9% among 340,000 | AID 651965, 2013; active = well fitted falling curve with a large enough effect; inconclusive = small, poorly fitted or top-dose-only effect; inactive = no such curve, though single readings can be large or run the other way; also: potency is read from the fitted curve at half-maximal effect; the source files actives as falling curves though it sought activators and does not explain the sign; nearly all actives have a fitted effect of over 65% in size; many hits overshoot -100%
# Target sequence (P80244 whole entry, looked up): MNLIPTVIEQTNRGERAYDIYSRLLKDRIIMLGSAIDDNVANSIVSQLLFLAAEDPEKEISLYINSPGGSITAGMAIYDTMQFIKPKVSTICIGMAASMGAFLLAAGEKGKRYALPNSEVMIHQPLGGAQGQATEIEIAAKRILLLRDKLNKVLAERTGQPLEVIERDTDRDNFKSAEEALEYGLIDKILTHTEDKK
#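 Buffer: 100 mM Tris/HCl pH8, 100 mM KCl, 0.05% low protease BSA, 2.5% glycerol, 0.01% Tween-20. ClpP 10 microg/mL final; 20 min RT; delta FRET normalized to ADEP and DMSO controls.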
# Menin MLL FP FL: displaces fluorescein MLL peptide from human menin; Fluorescence polarization, fluorescein-MLL peptide displacement from menin; FP activity change, % at 61.4 µM; 290,000 tested, under 10 active; AID 1766; inconclusive = falling polarisation curve, or a change in total fluorescence; inactive = total fluorescence flat and polarisation flat or rising; no compound was filed as active; the % refers to the polarisation; negative = inhibition;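 also: % of control where 0% means no effect; inhibitors lower the polarisation; unlabelled MLL peptide was the positive control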
# PINK1 expr mod: modulators of PINK1 expression; PINK1 immunofluorescence, high-content cytometry, 24 h; Potency, µM (titrated, usually from 76.6 µM), for inactives: at the top dose activation (PINK1 increase), hits mostly activators; hit rate 0.2% among 410,000; AID 624263; active = well fitted activation curve with a large enough effect; inconclusive = small, poorly fitted or top-dose-only effect; inactive = flat fitted curve, though single readings scatter; cell line not stated here;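 also: potency is read from the fitted curve at half-maximal effect; % of control where 0% means no effect; nearly all actives have a fitted effect of over 65% in size; a mitochondrial uncoupler was the plate control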
#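 Readout is PINK1 immunofluorescence, quantified alongside mitochondrial, cell and nuclear markers by laser-scanning microplate cytometry. Cells from a stable line were exposed to compound titrations (5 concentrations) for 24 hours, with CCCP controls.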
# Sfp inh: Sfp phosphopantetheinyl transferase inhibition | Q9F4F7 | Biochemical Sfp PPTase activity, qHTS | Potency, µM, for inactives: max response, negative = inhibition, most hits filed as inhibitors | hit rate 3.5% among 310,000 | AID 1490; active = well fitted inhibition curve with a large enough effect; inconclusive = small, poorly fitted or top-dose-only effect, or another doubt; inactive = no such curve, though single readings can be large or run the other way;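 also: the enzyme is Sfp with the accession as filed and its product quenches rhodamine fluorescence; potency is read from the fitted curve at half-maximal effect; 0% = enzyme reaction without inhibitor and -100% = no enzyme wells; top concentration of the series not given in the record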
#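 Step 1, compound plus 15 nM Sfp-PPTase, 15 min, room temperature. Step 2, add rhodamine-CoA (5 uM) and BHQ-2-YbbR (12.5 uM). Step 3, read 525/598 nm fluorescence at 0 and 30 min.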
# TRPML1 agonist: agonists of human TRPML1 channel. Q9GZU1. TRPML1-expressing cells, Ca2+ dye fluorescence, FDSS; host cell line not named in the record; reference of the full effect not given here. activation, % (concentration not given with the values). hit rate 0.12% among 410,000; in the data active = activation above about 50%; inconclusive = about 30% to 50%; inactive = below about 30%; also: 0% is about no effect; the text of the record puts the active cut at 80%
#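 Kinetic FDSS Ca2+ read in Tet-induced TRPML1-DL cells (ABD Ca8 dye plus quencher, 45-90 min RT loading): baseline, then compound, then 110 s agonist window; EC80 agonist 54-4 at 4uM final added afterwards for a 110 s antagonist window.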
# Starred values were filed as active, the others as inactive; u = inconclusive; x = no result given; [ ] = dose if it differs, or a comment. Random draw from the library (roughly 4.4% active in at least one column).
# Start of the data: the first 4 records, to show the layout:
entry	mol	TRPV1 potentiator	ClpP mod	PINK1 expr mod	TRPML1 blocker	Menin MLL FP FL	TRPML1 agonist	Sfp inh
1	CCn1c(SCc2ccc(Cl)c(Cl)c2)nnc1C(C)NC(=O)c1ccc(OC)cc1 (configuration not stated)	-10	-1.3%	16%	-2	8.0	0.1	27%
2	CC(=O)c1ccc(NC(=O)Nc2ccc(Br)cc2C)cc1	-5	-0.1%	3.9%	16	3.9	-0.1	12%
3	COc1cccc(NC(=O)C(=O)NCCc2ccc(F)cc2)c1	7	x	6.0%	-3	0.3	0.5	14%
4	CCNc1ncc2nc(-c3ccc(F)cc3)c(=O)n(C[C@H]3CCCO3)c2n1	x	x	0.1%	x	3.1	x	28%

# The whole of this part, from the start:
entry	mol	TRPV1 potentiator	ClpP mod	PINK1 expr mod	TRPML1 blocker	Menin MLL FP FL	TRPML1 agonist	Sfp inh
1	CCn1c(SCc2ccc(Cl)c(Cl)c2)nnc1C(C)NC(=O)c1ccc(OC)cc1 (configuration not stated)	-10	-1.3%	16%	-2	8.0	0.1	27%
2	CC(=O)c1ccc(NC(=O)Nc2ccc(Br)cc2C)cc1	-5	-0.1%	3.9%	16	3.9	-0.1	12%
3	COc1cccc(NC(=O)C(=O)NCCc2ccc(F)cc2)c1	7	x	6.0%	-3	0.3	0.5	14%
4	CCNc1ncc2nc(-c3ccc(F)cc3)c(=O)n(C[C@H]3CCCO3)c2n1	x	x	0.1%	x	3.1	x	28%
5	Cc1cccc2sc(NC(=O)CCn3cccc3)nc12	5	x	4.9%	-3	-1.9	-0.3	13%
6	CCOc1ccc(NC(=O)NCCCSC2CCCCC2)cc1	7	0.5%	25%[38.3 µM]	19	0.0	1.0	2%
7	CCCNC(=O)C1(C)CCCN(C(=O)CN2C(=O)c3ccccc3C2=O)C1 (configuration not stated)	x	-3.4%	-0.4%	x	x	-0.6	x
8	COc1ccc(OC)c(NC(=O)Cn2nc3c(cc2=O)CCCC3)c1	x	-2.1%	-0.1%	-8	x	0.1	x
9	CCOC(=O)N1CCN(c2cc(N(C)CCO)c([N+](=O)[O-])c3nonc23)CC1	14	-0.5%	-0.2%	9	0.7	1.6	4%
10	CCOC(=O)c1cnc(-n2nc(C)cc2C)nc1N1CCOCC1	5	1.4%	-2.2%	-9	0.7	0.4	-22%
11	COc1ccc(-c2[nH]ncc2CN2CCN(c3ccccn3)CC2)c(OC)c1	-1	x	-0.9%	4	-0.4	-0.5	-1%
12	COc1ccc(-c2nc(Cn3c(SCc4ccccc4F)nc4ccncc43)c(C)o2)cc1OC	x	u	1.3%	6	x	-0.6	x
13	Cc1ccccc1CSc1nsc(N)n1	7	-1.7%	1.9%	-8	7.5	0.6	12%
14	CC(=O)NC(c1ccc(F)c(F)c1)c1nc(-c2cccc(F)c2)cs1 (configuration not stated)	x	-2.5%	1.4%	x	x	0.1	x
15	CC(C)n1cnc2c(oc3ccccc32)c1=O	-25	-0.9%	8.3%	6	4.3	-1.3	5%
16	CC1(C)NC(=O)N(CC(O)COc2ccc(-c3ccccc3)cc2)C1=O (configuration not stated)	9	-8.0%	3.7%	5	-7.3	0.9	5%
17	COC(=O)c1ccc(N2CCN(c3ccccc3)CC2)c(N)c1	10	23%	2.0%	-5	9.9	0.1	12%
18	COc1ccc2occ(C(=O)c3coc4ccc(O)c(CN(C)C)c34)c2c1	16	-0.5%	2.0%	-11	2.3	1.8	-15%
19	COc1nc(Nc2ccccc2)nc(OC)n1	x	x	3.7%	-12	x	-0.1	x
20	Cc1ccc(C(=O)c2nocc2C(=O)c2cccs2)cc1	7	-1.9%	1.5%	1	3.9	-0.4	21%
21	COc1ccc(C(=O)N2CC(=O)Nc3ccccc32)cc1S(=O)(=O)N1CCCC1	5	x	1.8%	13	2.0	0.4	23%
22	[O-]/C(=C(\C(=S)NCc1ccccc1)[n+]1ccccc1)c1ccc(Cl)cc1	-6	x	2.4%	-2	6.1	-0.3	-55%
23	Cc1cc(=O)nc2c3ccccc3n(CC(=O)NCCCN3CCCC3=O)n12	-9	3.3%	-0.7%	-16	x	-0.3	9%
24	Cc1ccc(CNC(=O)C2CCC(=O)N(CCCN3CCOCC3)C2)cc1 (configuration not stated)	2	0.5%	-2.3%	-4	x	-0.4	12%
25	COc1ccccc1C(=O)O/N=C1/CCCc2c1ccc(OC)c2[N+](=O)[O-]	-25	-1.8%	1.5%	1	-3.9	2.6	11%
26	CN(C)CCCn1c(=O)n(CCc2ccccc2)c(=O)c2c3c(sc21)CCCCC3	7	0.2%	-0.1%	16	5.5	2.0	10%
27	CCCC(=O)NCCc1cc2ccc(OC)cc2[nH]c1=O	-7	-28%	-2.6%[38.3 µM]	5	1.3	4.0	7%
28	Cc1ccccc1OC(=O)CSc1nnc(-c2cccs2)o1	x	53%	0.2%	13	x	0.5	x
29	COCCCn1ccc(O)c(Cc2ccc(F)cc2)c1=O	30	0.1%	-1.7%	1	0.9	-0.5	7%
30	COC(=O)c1cc([N+](=O)[O-])ccc1N1CCN(Cc2ccccc2)CC1	13	-1.7%	0.5%	11	10	0.1	-7%
31	S=C(NCc1cccnc1)NCc1cccnc1	-3	0.6%	-1.0%	-11	0.0	0.1	11%
32	O=C(COC(=O)CCCc1nc2ccccc2s1)Nc1ncc(Cl)cc1Cl	5	-0.8%	-2.8%	-6	4.5	-1.0	0%
33	C[C@H]1CN=C(N(C)C)N1CCC1CCCC1	2	-2.7%	2.0%	1	x	-0.4	x
34	O=C(NCC(=O)N(c1ccc(F)cc1)C(C(=O)NC1CCCC1)c1cccnc1)c1ccco1 (configuration not stated)	0	-3.9%	1.4%	6	5.7	-1.2	3%
35	COc1cc2c(cc1OC)/C(=C/c1ccc(Br)cc1)C(=O)OC2	6	-3.2%	-3.6%	25	3.4	3.5	-13%
36	Cc1csc(C)[n+]1CC(=O)c1ccccc1	u	0.3%	2.9%	-6	2.1	0.9	6%
37	COC(=O)c1ccc2c(c1)N(Cc1nc(-c3cccc(C)c3)oc1C)C(=O)C1CCCN21 (configuration not stated)	u	x	x	x	12	x	-16%
38	COc1ccc(CNC(=O)c2sc(=O)n(Cc3ccc(C)cc3)c2C)cc1OC	x	-2.4%	0.0%	x	x	-0.3	x
39	CCOc1ccc(NC(=O)CN2CCN(C(=O)C3CCCO3)CC2)cc1 (configuration not stated)	2	-1.0%	1.3%	14	x	0.6	16%
40	O=C(COc1ccccc1)NNc1nc2ccccc2s1	-4	0.2%	3.9%	-9	6.1	1.7	-3%
41	COc1ccc(N2CCN(S(=O)(=O)c3cc(Br)cnc3N)CC2)cc1	8	x	5.5%	34	x	0.1	8%
42	CCn1cc(C(=O)N2CCc3ccccc32)c(=O)c2cc(S(=O)(=O)N3CC(C)CC(C)C3)ccc21 (configuration not stated)	15	-2.0%	1.9%	0	2.9	0.5	1%
43	CC1CCc2sc3ncnc(N4CCN(CCO)CC4)c3c2C1 (configuration not stated)	11	x	0.7%	7	-2.8	0.0	-3%
44	O=C(CN1CCN(S(=O)(=O)c2ccc3ccccc3c2)CC1)Nc1ccc(N2CCOCC2)cc1	-2	-1.3%	-0.5%	2	3.1	-1.2	14%
45	O=C(CCCNC(=O)c1ccc(Cl)cc1)Nc1cccc(F)c1	4	x	0.2%	-3	-11	-0.1	9%
46	Cc1cc(C(=O)COc2ccc(F)cc2Br)c(C)n1C	-2	x	7.1%	29	1.8	-0.9	-1%
47	C=CCn1c(SCC(=O)N2CCOCC2)nc2ccccc2c1=O	4	0.4%	-0.3%	38	x	-0.5	11%
48	COc1ccc(CCNC(=O)c2cc3c(=O)n4ccccc4nc3n(Cc3ccco3)c2=N)cc1OC	6	-7.7%	-0.6%	10	x	2.7	3%
49	CN(C)c1ccc(-c2csc(C(O)c3ccc(F)c(F)c3)n2)cc1 (configuration not stated)	x	-8.0%	10%	x	x	0.0	x
50	COc1ccccc1C(=O)N1CCN(C(=O)c2ccncc2)CC1	10	-15%	-1.8%	-13	-0.9	-0.4	0%

# Further records.
entry	mol	TRPV1 potentiator	ClpP mod	PINK1 expr mod	TRPML1 blocker	Menin MLL FP FL	TRPML1 agonist	Sfp inh
51	Cc1onc(-c2c(F)cccc2Cl)c1C(=O)Nc1ccc(Cl)c(S(=O)(=O)N(C)C)c1	u	-0.3%	4.0%	26	x	-0.4	x
52	O=C(O)CSC1c2ccccc2C(=O)N1c1ccccc1 (configuration not stated)	3	1.2%	-1.4%	21	0.9	1.2	15%
53	Cc1cc(C(=O)NNC(=S)Nc2cccc(C(F)(F)F)c2)nn1C	24	2.0%	1.9%	28	x	-0.6	8%
54	O=C(CCC(=O)OC(C(=O)c1ccccc1)c1ccccc1)Nc1ccccc1 (configuration not stated)	-1	4.4%	-0.2%	30	2.0	0.8	9%
55	COc1cccc(NS(=O)(=O)c2ccc(Br)s2)c1	3	-3.9%	-2.3%	19	-1.2	2.0	u
56	Cc1c(NC(=O)Nc2ccccc2C(F)(F)F)sc2nc3n(c(=O)c12)CCC(C)CC3 (configuration not stated)	x	-2.4%	2.5%	5	x	-0.9	x
57	O=c1c2ccccc2nnn1CSc1nc2ccccc2[nH]1	5	0.0%	5.7%	-7	-0.3	-0.4	7%
58	CCOC(=O)CN1C(=O)N[C@@H](CCc2ccccc2)[C@@H](C(=O)OC)[C@H]1C	x	-0.9%	-0.4%	-12	-1.9[11.7 µM]	-0.3	10%
59	COc1ccccc1-c1nnc(SCC(=O)Nc2nc(-c3ccccc3)cs2)n1C	-19	1.4%	-0.9%	-26	4.9	4.6	9%
60	O=C(NC1CC1)C(Cl)c1ccccc1 (configuration not stated)	-1	x	-2.4%	6	3.2	0.5	27%
61	C=CCNc1nc(NC(C)(C)CO)nc(OC)n1	-1	0.7%	0.2%	9	2.3	0.1	2%
62	CC(C)Cn1c(=O)c(C(=O)NCc2ccccn2)c(O)c2ccccc21	-5	u	1.2%	-15	0.5	3.4	4%
63	Cc1ccccc1N1C(=O)C(Oc2ccc(Cl)cc2)C1CNC(C)(C)C (configuration not stated)	u	1.3%	16%	12	1.7	1.4	-4%
64	Cc1cccc(CNC(=O)CCc2nnc(C3CCCCC3)o2)c1	-2	x	-0.7%	0	-3.7	-0.1	15%

# Bioassay records as filed in PubChem.
